Screening data deposited in PubChem BioAssay by Johns Hopkins Ion Channel Center.
KCNQ2 inh: KCNQ2 potassium channel inhibitors, primary screen, cell-based, CHO-K1, FluxOR thallium flux, B-score (AID 2156); 20 min; stronger effect = lower value; only compounds with negative scores are shown here; some inactives read as strong as hits; B-score at 10 µM; 1.1% of 310,000 active;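 active = fluorescence ratio B-score at most minus 3 library SDs, with starting brightness B-score within 2 library SDs, cut at about -5.5 in these data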
Target sequence (O88943 whole entry, looked up): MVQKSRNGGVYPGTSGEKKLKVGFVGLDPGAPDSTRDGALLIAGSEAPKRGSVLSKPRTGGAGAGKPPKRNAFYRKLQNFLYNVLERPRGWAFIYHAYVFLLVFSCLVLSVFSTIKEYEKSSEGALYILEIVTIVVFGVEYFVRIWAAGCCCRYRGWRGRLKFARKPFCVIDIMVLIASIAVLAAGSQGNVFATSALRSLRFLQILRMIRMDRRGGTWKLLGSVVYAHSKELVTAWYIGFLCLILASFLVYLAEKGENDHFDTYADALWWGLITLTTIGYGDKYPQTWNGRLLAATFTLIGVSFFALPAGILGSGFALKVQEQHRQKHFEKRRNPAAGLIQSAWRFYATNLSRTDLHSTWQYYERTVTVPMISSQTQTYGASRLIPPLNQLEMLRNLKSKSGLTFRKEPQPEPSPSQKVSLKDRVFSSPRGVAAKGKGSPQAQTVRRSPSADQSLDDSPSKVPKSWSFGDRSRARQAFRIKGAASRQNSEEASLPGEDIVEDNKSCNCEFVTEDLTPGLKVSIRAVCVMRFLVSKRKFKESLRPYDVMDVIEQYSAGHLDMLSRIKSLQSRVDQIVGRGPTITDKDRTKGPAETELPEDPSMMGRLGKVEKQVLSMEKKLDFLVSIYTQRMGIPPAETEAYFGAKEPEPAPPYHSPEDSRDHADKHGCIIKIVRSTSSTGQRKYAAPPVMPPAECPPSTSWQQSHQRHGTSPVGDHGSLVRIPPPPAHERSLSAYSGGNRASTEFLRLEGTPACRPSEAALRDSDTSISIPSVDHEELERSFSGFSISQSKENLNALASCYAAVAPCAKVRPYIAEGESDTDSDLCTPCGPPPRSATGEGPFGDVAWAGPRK
KCNQ2 inh baseline: recorded beside KCNQ2 inh, whose call it bears; B-score; measured here: initial fluorescence intensity artifact check;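 brightness before thallium and not channel activity; 0 = typical well and far values either way flag optical interference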
Starred values were filed as active, the others as inactive; i = inactive.

Under each structure: KCNQ2 inh | KCNQ2 inh baseline
> CC(=O)Nc1ccccc1C(=O)OCC(=O)c1cccc2ccccc12
 : i | -0.08
> COc1cccc(/C=C2\N=C(c3cncc(Br)c3)OC2=O)c1
 : i | 0.17
> COc1ccc(-n2c(O)c(C=NCCCn3ccnc3)c(=O)[nH]c2=O)cc1
 : i | 1.9
> CCN(CC)c1ccc(CN2CC=C(c3ccc(F)cc3)CC2)cc1
 : i | 0.72
> Cc1cccc(-n2c(O)c(/C=N/NC(=O)c3ccncc3)c(=O)[nH]c2=O)c1
 : i | -1.2
> Cc1cc(C(=O)C[N+]23CCN(CC2)CC3)c(C)n1-c1ccc(Br)cc1
 : i | -0.26
> CCC(C)N1C(=O)/C(=C\c2cc3c4c(c2)CCCN4CCC3)C(=O)NC1=S (stereo not given)
 : i | 3.9
> Clc1ccccc1NC1=NCCCS1
 : i | 0.37
> COC(=O)C1=C(c2ccc(S(C)(=O)=O)cc2)C[C@@H]2CC[C@H]1N2C(=O)N1CCC(O)CC1
 : i | 1.2
> CCOC(=O)C1(CCc2ccccc2)CCN(C(C)CSC)CC1 (stereo not given)
 : i | 2.1
> CCN(CC)c1ccc(CC2C(=O)N(C)C(=O)N(C)C2=O)cc1
 : i | 0.64
> Fc1c(F)c(F)c(N2CCNCC2)c(F)c1F
 : i | 0.74
> O=C(N/N=C/c1c(O)n(Cc2ccccc2)c(=O)[nH]c1=O)c1ccccc1O
 : i | 0.68
> Cc1ccccc1-[n+]1c(-c2ccccc2)cc(-c2ccccc2)cc1-c1ccccc1
 : -8.3* | -1.1*
> CC(NC(=O)Cc1cccc2ccccc12)C(=O)N1CCC(=O)CC1 (stereo not given)
 : i | -0.03
> CN1CCN(c2ccc(C(N)=O)cc2N)CC1
 : i | -1.1
> O=c1cc(C(F)(F)F)c2cc3c4c(c2o1)CCCN4CCC3
 : i | 24
> CC1N(O)C2CCCCCC2N1O (stereo not given)
 : i | 0.31
> c1ccc2sc(NC3=NCCN3)nc2c1
 : i | -1.1
> Cc1ccc(-n2c(C)cc(/C=C3/C(=O)NC(=O)N(Cc4ccco4)C3=O)c2C)cc1
 : i | 0.55

Retrieved by structure from above, two records:
Under each structure: KCNQ2 inh | KCNQ2 inh baseline
> CCN(CC)c1ccc(CN2CC=C(c3ccc(F)cc3)CC2)cc1
 : i | 0.72
> CCC(C)N1C(=O)/C(=C\c2cc3c4c(c2)CCCN4CCC3)C(=O)NC1=S (stereo not given)
 : i | 3.9

Later entries:
Under each structure: KCNQ2 inh | KCNQ2 inh baseline
> COc1ccc(C(=O)C2CCCN(Cc3cccc(C)n3)C2)c(OC)c1 (stereo not given)
 : i | 0.01
> CC(C)c1ccc(O)c(CN2CCN(c3ccccc3)CC2)c1
 : i | -0.01
> COc1cc(C)c(CN2CC=C(c3ccc(F)cc3)CC2)cc1C
 : i | -0.55
> OCC1(CO)COC(c2cccnc2)N1 (stereo not given)
 : i | -0.37
> CC(=O)O[C@@H]1[C@H]2CC[C@@H]3[C@]1(C[C@@H](OC(C)=O)[C@@]1(O)C([C@@H]4O[C@@H]4C1(C)C)[C@]3(C)O)C[C@@]2(C)O (stereo not given in full)
 : i | 1.3
> COc1ccc(C2(C#N)CCN(C)CC2)cc1
 : i | -0.45
> CC(C)(C)c1ccc(CSc2cnn(C(C)(C)C)c(=O)c2Cl)cc1
 : i | -1
> CCN(CC)P(=O)(Oc1ccccc1)Oc1ccccc1
 : i | -0.1
> CCOC(=O)c1sc(N=Nc2c(O)[nH]c(=O)[nH]c2=O)c(C(=O)OCC)c1C
 : i | 1.4
> O=C(c1ccc(Cl)cc1)C1CCCN(Cc2cccc3cccnc23)C1 (stereo not given)
 : i | -1.1
> Cc1nn(C)c(C)c1/C=C1/CC2C3CC=C4CC(O)CCC4(C)C3CCC2(C)C1=O (stereo not given)
 : i | 0.04
> CC(=O)OC1CCC2(/C=N/O)C(=CCC3C4CCC(=O)C4(C)CCC32)C1 (stereo not given)
 : i | 0.96
> CCCCOc1ccc(CC2C(=O)N(C)C(=O)N(C)C2=O)cc1
 : i | 3.1
> CCOC(=O)C1(CCOc2ccccc2)CCN(Cc2ccc(C)s2)CC1
 : i | -1.3
> Cc1ccc2c(c1)C1CN(C)CCC1N2C(=O)c1cn(-c2ccccc2)nc1-c1ccccc1 (stereo not given)
 : i | 0.02
> CN1C(=O)C(=Cc2ccc(N(C)C)c([N+](=O)[O-])c2)C(=O)N(C)C1=O
 : i | 0.48
> CCOC(=O)c1c(NC(NC(=O)CF)C(Cl)(Cl)Cl)sc2c1CCCC2 (stereo not given)
 : -8.4* | 1.5*
> COc1cc(C2SCC(=O)Nc3c2c(C)nn3-c2ccccc2)cc(OC)c1OC (stereo not given)
 : i | 0.04
> Cc1ccc2c(c1)C(c1ccccc1)NCC(=O)N2 (stereo not given)
 : i | -0.27
> C(#CCN1CCCCC1)COCc1ccccc1
 : i | 0.26

Already shown: an excerpt of the list.
Under each structure: KCNQ2 inh | KCNQ2 inh baseline
> COc1ccc(C(=O)C2CCCN(Cc3cccc(C)n3)C2)c(OC)c1 (stereo not given)
 : i | 0.01
> CC(C)c1ccc(O)c(CN2CCN(c3ccccc3)CC2)c1
 : i | -0.01
> COc1cc(C)c(CN2CC=C(c3ccc(F)cc3)CC2)cc1C
 : i | -0.55

The list goes on:
Under each structure: KCNQ2 inh | KCNQ2 inh baseline
> Cc1cc(=O)oc2cc(OCC(=O)N3CCN(Cc4ccc5c(c4)OCO5)CC3)ccc12
 : i | -1.8
> CC(C)N(Cc1ccco1)/N=C/c1c(O)n(Cc2ccccc2)c(=O)[nH]c1=O
 : i | 0.02
> CCOC(=O)C1=C(N)Oc2cc(C)oc(=O)c2C12C(=O)N1c3c(cccc32)C(C)CC1(C)C (stereo not given)
 : i | -0.03
> Cc1ccccc1N1C(=O)NC(=O)/C(=C/c2ccc(N3CCOCC3)o2)C1=O
 : i | 6.9
> CCCCn1c(O)c(C(CC)=NCc2ccco2)c(=O)[nH]c1=O
 : i | 1.9
> COC(=O)[C@@H]1[C@@H](C(=O)OC)C2(c3ccccc3-c3ccccc32)N(c2ccc(Cl)cc2)N1C#N
 : i | 1.1
> CCN1/C(=C\C=C\C2=[N+](CC)c3ccccc3C2(C)C)C(C)(C)c2ccccc21
 : i | 73
> c1ccc2c(CN3CCCCCC3)c[nH]c2c1
 : i | 0.82
> Cn1c[n+](C)cc1C(O)c1ccccc1 (stereo not given)
 : i | 0.77
> CCCC(=O)NC(Oc1ccc(OC)cc1)C(Cl)(Cl)Cl (stereo not given)
 : i | -0.01
> CCN1CCN(C(=O)Cc2c(C)n(C(=O)c3ccc(Cl)cc3)c3ccc(OC)cc23)CC1
 : i | -0.29
> CC(C)(C#CC(=O)O)OOC(c1ccccc1)(c1ccccc1)c1ccccc1
 : -11* | -1*
> O=P(NS(=O)(=O)c1ccc(Br)cc1)(Oc1ccccc1)Oc1ccccc1
 : i | -0.37
> O=P(Nc1cccc(F)c1)(Oc1ccccc1F)Oc1ccccc1F
 : i | -0.67
> CC1CCN(CC(=O)c2cccc(C(F)(F)F)c2)CC1
 : i | -1.2
> ON1C2CCCCC2N(O)C1c1ccccc1 (stereo not given)
 : i | 0.54
> COc1cccc(C(=O)C2CCCN(Cc3ccc4nsnc4c3)C2)c1 (stereo not given)
 : i | -0.38
> CN1C(=O)c2ccccc2NC(=O)[C@]12O[C@@H]2c1ccccc1
 : i | -2.1
> COP(=O)(C#Cc1ccccc1)C(O)c1ccc(Br)cc1 (stereo not given)
 : i | -0.7
> CN1C(=O)C(=Cc2ccccc2OCc2ccc(C(=O)O)cc2)C(=O)N(C)C1=O
 : i | 0.51
> CCc1ccc(-c2nn(Cc3ccccc3)cc2C=O)cc1
 : i | 0.3
> O=c1[nH]c(=S)[nH]c(O)c1/C=N/N1CCOCC1
 : i | 0.47
> COc1ccc(OCC(=O)N2CCN(Cc3c[nH]c4ccccc34)CC2)cc1
 : i | -0.23
> O=C(N/N=C/c1c(O)n(Cc2ccc(F)cc2)c(=O)[nH]c1=O)c1ccccc1
 : i | -0.37
> Cc1nc2ccccn2c1P(=S)(N1CCCCC1)N1CCCCC1
 : -5.5* | -0.6*
> CN1CCN(C(=O)OC2c3nccnc3C(=O)N2c2ccc(Cl)cn2)CC1 (stereo not given)
 : i | -0.77
> O=c1cccc2n1CC1CC2CN(c2nc(N3CCCCC3)nc(N3CCCCC3)n2)C1 (stereo not given)
 : i | -0.73
> Cc1cccc(OCC(=O)N2CCN(Cc3ccc4c(c3)OCO4)CC2)c1
 : i | -1.4
> CCn1cc(C(=O)c2cccs2)c2ccccc21
 : i | -0.66
> O=C(O)c1ccccc1NC(=O)C1C2CCC(O2)C1C(=O)O (stereo not given)
 : i | 0.15
> C=CCn1c(O)c(C(C)=NCC2CCCO2)c(=O)[nH]c1=O (stereo not given)
 : i | 0.07
> Cc1cc(OCC(=O)NC(Cc2ccc(Cl)cc2)C(=O)O)c2c3c(c(=O)oc2c1)CCC3 (stereo not given)
 : i | -2.2
> CCn1ccnc1CN1CCCC(C(=O)c2ccc(SC)cc2)C1 (stereo not given)
 : i | -0.61
> CCOC(=O)[C@@]1(C#N)C(c2ccc(Cl)c(Cl)c2)[C@H](C(N)=O)N2C=C(C(C)=O)C=C[C@H]21 (stereo not given in full)
 : i | 2.7
> O=[N+]([O-])c1ccc(CN2CC=C(c3ccccc3)CC2)cc1
 : i | -0.8
> CCN(CC)c1ccc(CNCCc2ccc(F)cc2)cc1
 : i | 0.47
> Cc1cc(C)cc(NC(=S)NC2CC3CCCC(C2)N3Cc2cccs2)c1 (stereo not given)
 : i | -0.73
> COC(=O)c1c2[n+](cc3cc(OC)c(OC)cc13)CCc1cc(OC)c(OC)cc1-2
 : i | 0.4
> CCCCCCn1c(=O)c(C(=O)Nc2nc(CC(=O)OCC)cs2)c(O)c2ccccc21
 : i | 3.1
> NNC(=O)c1nc[nH]c1C(=O)Nc1ccc(Cl)cc1C(=O)c1ccccc1
 : i | 0.14

By substructure: those above containing an aryl thioether with sulfur outside any ring
Under each structure: KCNQ2 inh | KCNQ2 inh baseline
> CC(C)(C)c1ccc(CSc2cnn(C(C)(C)C)c(=O)c2Cl)cc1
 : i | -1
> CCn1ccnc1CN1CCCC(C(=O)c2ccc(SC)cc2)C1 (stereo not given)
 : i | -0.61

New compounds follow:
Under each structure: KCNQ2 inh | KCNQ2 inh baseline
> CC(Cc1ccccc1)N1C(=O)c2ccccc2C1=O (stereo not given)
 : i | -1.3
> CCCCn1c(O)c(C(C)=NC(Cc2c[nH]c3ccccc23)C(=O)OC)c(=O)[nH]c1=O (stereo not given)
 : i | -1.7
> COc1ccc(CN2CCNCC2)c(OC)c1OC
 : i | 1
> CCCCOc1ccc(CN2CCN(CCO)CC2)cc1
 : i | 3.6
> CCCCn1c(C)c(C(=O)O)c2cc(OC)c3ccccc3c21
 : i | 0.52
> O=c1[nH]c(=O)n(CCC2=CCCCC2)c(O)c1C=NCCN1CCNCC1
 : i | 0.29
> CN(C)[C@@H]1C(=O)C(C(N)=O)=C(O)[C@@]2(O)C(=O)C3=C(O)c4c(O)cccc4[C@@](C)(O)[C@H]3C[C@@H]12
 : i | 0.66
> C[N+](C)(C)c1ccccc1
 : i | 0.24
> O=C(NCCCn1ccnc1)C(Cl)(Cl)Cl
 : i | -0.17
> CN1C(=O)N(C)C(=O)C2(Cc3cc(NC(=O)c4ccc(F)cc4)ccc3N3CCCC32)C1=O (stereo not given)
 : i | 1.5
> COc1ccc(C)cc1NC1=NCCCS1
 : i | 0.83
> CCc1ccc(OCC(=O)N2CCN(Cc3ccc4c(c3)OCO4)CC2)cc1
 : i | -1.5
> COC(=O)CSC1=NP(=S)(SCC(=O)OC)N2CCCC2=C1C#N (stereo not given)
 : i | 1.6
> COC(=O)C1(C(=O)O)Cc2cc([N+](=O)[O-])ccc2N2CCCC21 (stereo not given)
 : i | -0.06
> Cc1nn(Cc2ccccc2)c(C)c1C(=O)NC1CCCc2ccccc21 (stereo not given)
 : i | 0.01
> N#Cc1ccc(/C=C/C(=O)O)cc1
 : i | -0.48
> CCCC(C)C1(CC)C(=O)NC(=Nc2ccccc2OC)NC1=O (stereo not given)
 : i | 1.3
> CN1CCN(c2nc3ccccn3c(=O)c2C=C2C(=O)N(C)C(=O)N(C)C2=O)CC1
 : i | 1.2
> CN1C(=O)NC(=O)/C(=C/c2ccc([N+](=O)[O-])o2)C1=O
 : i | 0.93
> COc1ccc(C(O)P(=O)(Oc2ccccc2)Oc2ccccc2)cc1 (stereo not given)
 : i | -0.39
> CC12CN3CN(C1)CC(c1ccccc1)(C3)C2=O
 : i | -0.01
> COP(=O)(CC(=O)O)c1ccccc1 (stereo not given)
 : i | 0.45
> CCC(=O)Nc1ccc(N2CCN(CC)CC2)c(Cl)c1
 : i | -1.1
> CN(C)C(=O)Oc1cccc(NC(=O)c2ccccc2C(F)(F)F)c1
 : i | 0.52
> Cc1cccc(OCCn2cccc2/C=C2/C(=O)NC(=O)N(Cc3ccco3)C2=O)c1
 : i | 2.4
> COC(=O)C1=C(c2cc3ccccc3s2)C[C@@H]2CC[C@H]1N2C(=O)NCCS(C)=O (stereo not given in full)
 : i | -0.52
> CCC1=Nc2cc(C(=O)N3CCC4(CC3)OCCO4)ccc2Sc2ccc(C)cc21
 : i | -0.95
> Cc1ccccc1N1C(=O)CC(=O)NC1=O
 : i | -0.32
> Cc1cc(OC(=O)N(C)C)nc(SCc2c(Cl)cccc2Cl)n1
 : i | 0.28
> Cc1ncc(CN2CCCC(C(=O)c3ccc(C(C)(C)C)cc3)C2)s1 (stereo not given)
 : i | 1.5
> CN(C)C(=O)Oc1noc2cc(Cl)ccc12
 : i | -0.68
> Cc1cc(C)cc(OCCOc2cccc(C=C3C(=O)NC(=O)NC3=O)c2)c1
 : i | 0.94
> C=C1C(=O)O[C@@H]2C[C@@H](C)[C@@H]3C=CC(=O)[C@@]3(C)[C@@H](O)[C@H]12
 : i | -0.4
> Brc1cccc(CNCCc2ccc3c(c2)OCO3)c1
 : i | -2.5

A portion of the library. The share of hits here may be higher or lower than overall.
